# Sa ugtP lethal – growth inhibition of ugtP-null S. aureus, primary screen, RN4220 ugtP deletion, OD600; 16 h; some inactives read as strong as hits; growth inhibition, % (no concentration beside the values); hit rate 0.54% among 330,000; AID 1259309, 2017;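 active means z-score under -3 and OD600 up to 0.15 on both plates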;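 further: plate controls were untreated wells for no effect and antibiotic for full effect; wells of about 80 µL received 100 nL stock; the first replicate is given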
# Bead autofluor – flagged as autofluorescent in microsphere protease counterscreen. compound autofluorescence counterscreen, microsphere flow cytometry; active compounds read high. AID 624483. fluorescence intensity (test concentration not listed). hit rate 3.1% among 360,000;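 active means at least 3 SD above the mean of all compounds, about 16000 in these data; inconclusive means too few beads counted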;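 further: 100 nL of 1 mM stock went into each well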
# Sa RN4220 lethal – growth inhibition of S. aureus RN4220, primary screen, OD600 | 16 h | inhibition, % (no concentration beside the values) | hit rate 0.33% among 330,000 | AID 1259311, 2017;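 active means z-score of -3 or lower and OD600 up to 0.18 on both plates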;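 further: plate controls were untreated cells for no effect and reference antibiotic for full effect; stock transfer was 100 nL into about 80 µL; one replicate is shown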
# BJeLR viability – MLPCN primary cell-based screen for lethality selective to Ras in HRASV12 cells. BJeLR (HRASV12) viability, CellTiter-Glo ATP luminescence, 48 h; reference of the scale not given here. inhibition, % (concentration not given with the values). hit rate 0.17% among 300,000. AID 1554, 2009;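 active means replicate mean above 50%; inconclusive means above 50% but judged a plate artefact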;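 further: 50 nL library stock added to about 25 µL; numbers are from one replicate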
# PrP UTR inh – inhibition of PrP 5' UTR reporter expression. cell-based PrP 5' UTR mRNA reporter, plate reader. hit rate 0.35% among 340,000. AID 488862, 2010. inhibition, % (concentration not given with the values);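 active means every replicate at 50% or more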;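 further: 0 = median of the neutral control wells; tested in H4 reporter cells; numbers are from one replicate; inactives centre near -14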
# Mtb hypoxia rep – PubChem AID 1159583; M. tuberculosis hypoxia-regulated fluorescent reporter, fluorescence; fluorescence inhibition, % (no concentration beside the values); hit rate 0.1% among 300,000;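 active means 35 to 45% if threefold the growth effect, above 45% if 1.5-fold the growth effect; inactive means the rest, general growth blockers included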;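 further: wells of about 50 µL received 100 nL stock; 0% = vehicle wells and 100% = reference inhibitor wells; whole bacteria with a GFP reporter of the hypoxia response; strong numbers were not always called active; many hits fall short of the cut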
# Mtb hypoxia rep growth – further read-out of Mtb hypoxia rep, marked with its call; growth inhibition, %; measured here: M. tuberculosis growth (absorbance);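 0% = vehicle and 100% = reference antibiotic; read after six days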
# Starred values were filed as active, the others as inactive; ? = inconclusive; . = no result given; & = joins results of further samples.
1: C/C(=N\NC(=O)CSc1nc2ccccc2o1)c1ccc(O)cc1
2: O=C(CCC1CCCN(C(=O)c2cccnc2)C1)NCc1ccccc1F (stereo not given)
3: CC(=O)NCC1(O)CCCC(C)C1 (stereo not given)
4: CCCC1(c2ccccc2)NC(=O)N(CC(=O)NCc2ccc(OC)cc2)C1=O (stereo not given)
5: CC1CCCC(C)N1CCCNC(=O)c1cc2c(=O)n(C)c3ccccc3c2n1C (stereo not given)
6: COc1cc(NC(=O)COC(=O)CC2CC3CCC2C3)cc(OC)c1 (stereo not given)
7: O=C(CSc1nc(-c2ccc(F)cc2)cc(C(F)(F)F)n1)Nc1ccc2c(c1)OCO2
8: COc1ccc(N2CCN(S(=O)(=O)c3ccc(C(=O)NC4CCCC4)cc3)CC2)cc1
entry no.	1	2	3	4	5	6	7	8
Sa ugtP lethal	.	1	10	5	0	5	-14	5
Bead autofluor	3925	?	3998	3950	5983	2815	1968	7836
Sa RN4220 lethal	.	-0.8	2.3	1.6	-1.7	2.4	4.9	9.1
BJeLR viability	-7	1	12	-6	-3	.	-19	-3
PrP UTR inh	-31	3	-4	-4	-19	-27	-16	-18
Mtb hypoxia rep	.	-7	12	-8	.	7	3	-2
Mtb hypoxia rep growth	.	5	6	9	.	5	3	2

# Structures listed so far that have an aryl methoxy group:
4: CCCC1(c2ccccc2)NC(=O)N(CC(=O)NCc2ccc(OC)cc2)C1=O (stereo not given)
6: COc1cc(NC(=O)COC(=O)CC2CC3CCC2C3)cc(OC)c1 (stereo not given)
8: COc1ccc(N2CCN(S(=O)(=O)c3ccc(C(=O)NC4CCCC4)cc3)CC2)cc1
entry no.	4	6	8
Sa ugtP lethal	5	5	5
Bead autofluor	3950	2815	7836
Sa RN4220 lethal	1.6	2.4	9.1
BJeLR viability	-6	.	-3
PrP UTR inh	-4	-27	-18
Mtb hypoxia rep	-8	7	-2
Mtb hypoxia rep growth	9	5	2

# The list goes on.
9: O=C(NCCCl)Nc1cccc(Br)c1
10: COc1cccc(OCCSc2nnc3sc4ccccc4n23)c1
11: N#CCO/N=C(\c1ccccc1)c1ccncc1
12: COc1cccc(N2CCN(c3ncnc4c3cnn4-c3ccc(C)cc3C)CC2)c1
13: COCCn1c(C)cc(C(=O)CN2C(=O)NC3(CCCCCCC3)C2=O)c1C
14: CCOC(=O)c1sc2c(c1C)C(c1cccs1)C1=C(CCCC1=O)N2 (stereo not given)
15: Fc1ccc(N2CCN(Cc3cnc(N4CCOCC4)s3)CC2)cc1
16: CCOC(=O)c1cn(-c2nc(-c3ccc(Cl)c(Cl)c3)cs2)c2c(F)c(N3CCOCC3)c(F)cc2c1=O
entry no.	9	10	11	12	13	14	15	16
Sa ugtP lethal	7	19	.	-1	5	.	10	.
Bead autofluor	4170	2346	16207*	5594	10352	3442	3097	3915
Sa RN4220 lethal	-0.2	30	.	-5.9	4.8	.	2.4	.
BJeLR viability	6	-3	-7	47	-1	3	-5	-7
PrP UTR inh	-12	-4	-7	-13	-63	-14	-7	-16
Mtb hypoxia rep	-3	4	.	23	14	.	6	.
Mtb hypoxia rep growth	-5	-1	.	27	4	.	3	.

17: O=C(Nc1ccc(S(=O)(=O)Nc2ncccn2)cc1)c1ccccc1NS(=O)(=O)c1ccc(Cl)cc1
18: Nc1ccccc1C(=O)C=Cc1ccc2c(c1)OCO2
19: COCCCNc1nc(SCc2ccccc2)nc2sc3c(c12)CCC3
20: COc1ccccc1NC(=O)C(C)Sc1nc2ccccc2c(=O)n1CC1CCCO1 (stereo not given)
21: CCOc1ccccc1N1CCN(C/C=C/c2ccc(N(C)C)cc2)CC1
22: Cc1c(C#N)c(NC(=O)c2ccccc2)n(Cc2ccccc2)c1C
23: c1ccc(-c2cc3nccc(-c4ccccn4)n3n2)cc1
24: CCc1nnc(NC(=O)CSc2nnc3nc(C)cc(C)n23)s1
entry no.	17	18	19	20	21	22	23	24
Sa ugtP lethal	4	4	40	7	.	3	-10	6
Bead autofluor	4856	.	4310	5121	3330	2593	2402	3448
Sa RN4220 lethal	2.8	4.4	17	-1.5	.	1.9	2.0	4.5
BJeLR viability	5	.	-2	3	2	-2	-2	-7
PrP UTR inh	-21	.	-3	-19	-19	1	-36	-17
Mtb hypoxia rep	9	2	10	3	.	.	8	-1
Mtb hypoxia rep growth	2	0	7	2	.	.	-4	19

25: CC(C)(C)C(=O)C(C(c1ccccc1)N1CCOCC1)N1CCOCC1 (stereo not given)
26: CCOC(=O)c1c(NC(=S)NC(=O)/C=C/c2cccs2)sc(C)c1C
27: O=C(NCCc1cnc[nH]1)Nc1cccc(C(F)(F)F)c1
28: Cc1nn(C)cc1/C=N\NC(=O)c1ccc2c(c1)c(C)c(C)n2Cc1ccccc1
29: CCOC(=O)C1(Cc2cccc(F)c2)CCN(C(=O)Cn2cnnn2)CC1
30: O=C(NCC(c1ccco1)N1CCCC1)c1ccc(S(=O)(=O)Nc2ccccc2F)cc1 (stereo not given)
31: O=[n+]1cc(-c2ccc(Cl)cc2)n([O-])c2c1CCCCC2
32: CC(NC(=O)C(C#N)=Cc1ccc(Cl)c([N+](=O)[O-])c1)c1ccccc1 (stereo not given)
entry no.	25	26	27	28	29	30	31	32
Sa ugtP lethal	9	10	13	.	6	4	6	1
Bead autofluor	2933	2029	3474	3162	5423	6056	2366	.
Sa RN4220 lethal	4.4	-0.6	1.9	.	4.9	2.9	5.5	24
BJeLR viability	.	-11	-4	10	9	-5	2	.
PrP UTR inh	3	-2	-13	-23	-11	-26	-27	.
Mtb hypoxia rep	24	0	5	.	3	4	9	9
Mtb hypoxia rep growth	9	0	-1	.	10	8	9	12

33: Cc1cccc(N2CCN(C(=O)NCc3ccc(F)cc3)CC2)c1C
34: COc1ccc(NC(=O)c2ccc3ccccc3c2OC)cc1
35: O=C(NCc1ccccn1)C1CC(c2ccccc2Cl)=NO1 (stereo not given)
36: CC(=O)N1CCc2cc(S(=O)(=O)CCC(=O)Nc3ccccc3F)ccc21
37: NC(=O)c1ncn([C@@H]2O[C@H](CO)[C@@H](O)[C@H]2O)c1O
38: O=C(Nc1ccc2nc3ccccc3nc2c1)c1ccc(Br)cc1
39: Cc1cccnc1CCNC(=O)CC1C(=O)NCCN1CC1CCCCC1 (stereo not given)
40: O=C(O)c1ccc(S(=O)(=O)N(CCc2ccccc2)Cc2ccc(Cl)cc2)cc1
entry no.	33	34	35	36	37	38	39	40
Sa ugtP lethal	6	2	10	1	.	-2	-5	-3
Bead autofluor	5624	4031	3333	3777	5728	2181	2128	4349
Sa RN4220 lethal	-7.6	4.9	7.2	2.0	.	1.1	4.6	23
BJeLR viability	-6	-3	5	-1	10	3	-4	3
PrP UTR inh	-18	-80	-13	-10	-12&-18	-20	9	-28
Mtb hypoxia rep	5	13	18	10	.	5	15	11
Mtb hypoxia rep growth	4	9	8	-4	.	6	2	2

41: CC(C)CCN1CCC(C)(NC(=O)c2ccccc2)C1=O (stereo not given)
42: O=[N+]([O-])c1ccccc1OCCN1CCCC1
43: CCNC(=S)NCc1ccco1
44: CN(C(=O)c1cccc(NC(=O)Cc2ccc(NC(=O)C3CCN(C(=O)c4ccccc4)CC3)cc2)c1)C1CC1
45: CCOC(=O)C1=C(CS(=O)(=O)c2ccccc2)NC(=O)NC1c1ccccc1OC (stereo not given)
46: CC(=O)N1CCN(C2c3cccc4cccc(c34)C2NS(=O)(=O)c2ccccc2)CC1 (stereo not given)
47: O=C(CCNC(=O)c1ccccc1Cl)NCc1cccnc1
48: CCCCn1c(N)c(N(CC(C)C)C(=O)C2CCN(S(=O)(=O)c3ccc(C)cc3)CC2)c(=O)[nH]c1=O
entry no.	41	42	43	44	45	46	47	48
Sa ugtP lethal	1	3	0	1	-8	-7	6	3
Bead autofluor	2941	3961	2207	3498	5668	3436	?	4918
Sa RN4220 lethal	6.9	2.7	4.2	2.2	0.6	-4.6	4.6	1.9
BJeLR viability	.	1	-2	.	-9	6	11	-18
PrP UTR inh	-5	-11	-35	-12	-8	-22	-29	-19
Mtb hypoxia rep	10	5	-3	-16	-1	11	8	4
Mtb hypoxia rep growth	4	6	2	1	6	2	-3	-8

49: CCOC(=O)C(O)(c1ccc(N=Cc2ccccc2O)c(C)c1)C(F)(F)F (stereo not given)
50: O=C(O)CCCC(=O)Nc1ccc(Sc2ccc([N+](=O)[O-])cc2)cc1
51: C=CCn1c(Cc2ccccc2)n[nH]c1=S
52: CC(=NN(Cc1ccccc1)c1ccccc1)c1cccnc1
53: N#C/C(=C\c1ccccc1)C(=O)NCc1ccc(F)cc1
54: COc1cc(NC(=O)Nc2cccc(C(C)=O)c2)cc(OC)c1OC
55: CCOc1ccc(NC(=O)c2nn(-c3ccc(OC)cc3OC)c(=O)c3ccccc23)cc1
56: COC(=O)c1c(C)oc(C)c1S(=O)(=O)N1CCCC1
entry no.	49	50	51	52	53	54	55	56
Sa ugtP lethal	11	11	-1	2	-5	-13	-8	4
Bead autofluor	2102	2840	3890	.	5815	21687*	.	5316
Sa RN4220 lethal	1.0	9.6	1.0	2.6	-0.8	-3.1	7.0	3.0
BJeLR viability	1	2	0	.	-4	-6	5	5
PrP UTR inh	-19	-3	-9	.	-2	-21	.	-32
Mtb hypoxia rep	11	.	14	3	-4	-2	-3	5
Mtb hypoxia rep growth	10	.	9	11	11	5	-1	4

57: O=C(COc1cccc(NC(=O)c2ccco2)c1)c1ccccc1
58: CC(C)(C)NC(=O)NC(=O)CN1CC=C(c2ccccc2)CC1
59: O=C(CSCc1ccc(Cl)cc1)NCCSCc1ccco1
60: O=C(NCSc1ccnc(SCNC(=O)c2ccc(F)cc2)n1)c1ccc(F)cc1
entry no.	57	58	59	60
Sa ugtP lethal	-15	1	1	4
Bead autofluor	9562	4644	3234	5167
Sa RN4220 lethal	-3.5	4.6	5.2	3.8
BJeLR viability	-1	.	-15	-3
PrP UTR inh	-33	-13	-12	-20
Mtb hypoxia rep	-2	21	7	4
Mtb hypoxia rep growth	-12	5	3	9

# 3 entries from above in a different format:
no.	molecule	Sa ugtP lethal	Bead autofluor	Sa RN4220 lethal	BJeLR viability	PrP UTR inh	Mtb hypoxia rep	Mtb hypoxia rep growth
45	CCOC(=O)C1=C(CS(=O)(=O)c2ccccc2)NC(=O)NC1c1ccccc1OC (stereo not given)	-8	5668	0.6	-9	-8	-1	6
46	CC(=O)N1CCN(C2c3cccc4cccc(c34)C2NS(=O)(=O)c2ccccc2)CC1 (stereo not given)	-7	3436	-4.6	6	-22	11	2
47	O=C(CCNC(=O)c1ccccc1Cl)NCc1cccnc1	6	?	4.6	11	-29	8	-3

# Screening data: PubChem, several laboratories
